# Compound activity: PubChem BioAssay, Broad Institute
# UUG fidelity = modulators of yeast start codon fidelity, primary screen, whole organism, S. cerevisiae, single point, plate reader; S. cerevisiae UUG-firefly luciferase reporter, luminescence/redox ratio; 350,000 tested, 0.13% active; activity score, % at 18.7 µM;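 active = replicate mean at a twofold rise or more, about +100% in these data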;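 also: firefly luciferase made from a UUG start codon reports start codon fidelity; reporter light over untreated wells divided by growth signal over untreated wells; some hits fall short of that in this replicate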
# HIV Env fusion = inhibitors of HIV-1 Env-driven cell-cell fusion, primary screen, HeLa-JRFL effector, CEM21 target cells, luciferase; inhibition, % at 12.3 µM; 360,000 tested, 1.1% active; AID 651610, 2012;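 active = mean replicate inhibition score of at least 50 and every replicate individually at or above 50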;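 also: 0% = plate neutral controls and 100% = maraviroc near 300 nM; one replicate is shown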
# An asterisk follows results filed as active; [ ] = another dose, or the depositor's remark. Not all compounds are listed; rates above refer to the full screens.
compound	UUG fidelity	HIV Env fusion
C[C@@H]1CN([C@@H](C)CO)S(=O)(=O)c2ccc(-c3ccncc3)cc2O[C@@H]1CN(C)C(=O)C1CC1	-2.8	-16.8[16.7 µM]
CN(C)C(=O)C[C@@H]1CC[C@H](NC(=O)C2CCC2)[C@@H](CO)O1	-5.0	-5.8[16.7 µM]
CNC[C@@H]1Oc2c(NC(=O)Nc3ccc(C(F)(F)F)cc3)cccc2C(=O)N([C@H](C)CO)C[C@@H]1C	6.0	1.9[16.7 µM]
Cc1noc(C)c1NC(=O)N(C)C[C@H]1Oc2ccc(NC(=O)Nc3cccc4ccccc34)cc2C(=O)N([C@H](C)CO)C[C@H]1C	-18.7	9.8[16.7 µM]
C[C@H](CO)N1C[C@H](C)[C@H](CN(C)C(=O)Cc2cccnc2)Oc2ncc(-c3ccncc3)cc2C1=O	-4.1	-11.1[16.7 µM]
C[C@H](CO)N1C[C@H](C)[C@@H](CN(C)C(=O)Nc2ccc3c(c2)OCO3)OCCCC[C@H](C)Oc2ccc(NC(=O)CCC(F)(F)F)cc2C1=O	11.9	-24.9[16.7 µM]
CN(C)CC(=O)N1[C@@H](C#N)[C@H](c2ccc(-c3cccc(C(=O)N(C)C)c3)cc2)[C@@H]1CO	21.7	-4.2[16.7 µM]
C[C@@H]1CN([C@H](C)CO)C(=O)c2cc(NS(=O)(=O)c3ccccc3)ccc2O[C@@H]1CN(C)C(=O)Nc1cccc2ccccc12	9.7	-6.6[16.7 µM]
O=S(=O)(c1cc(C(F)(F)F)ccc1Cl)N1CCN(Cc2ccc(OCCO)cc2)CC1	-3.3	7.3[16.7 µM]
COc1ccccc1-c1ccc2c(c1)O[C@H](CN(C)C(=O)c1ccccc1)[C@H](C)CN([C@H](C)CO)S2(=O)=O	12.5	-21.3[16.7 µM]
C[C@H]1CCCCO[C@H](CN(C)Cc2ccccc2)[C@@H](C)CN([C@@H](C)CO)C(=O)c2cc(NS(=O)(=O)c3ccc(Cl)cc3)ccc2O1	13.4	47.3[16.7 µM]
CCCC(=O)Nc1ccc2c(c1)OC[C@@H](C)N(S(=O)(=O)c1cn(C)cn1)C[C@H](C)[C@H](OC)CN(C)C2=O	19.8	-38.6[16.7 µM]
CCCN(C)C[C@H]1Oc2cc(C#C[C@@H](C)O)ccc2S(=O)(=O)N([C@@H](C)CO)C[C@H]1C	11.9	-16.2[16.7 µM]
C[C@@H]1CCCCO[C@H](CN(C)Cc2ccncc2)[C@H](C)CN([C@H](C)CO)C(=O)c2cc(NC(=O)Nc3ccc(C(F)(F)F)cc3)ccc2O1	22.6	20.5[16.7 µM]
CC(=O)N[C@H]1CC[C@@H](CC(=O)NCC2CCCCC2)O[C@@H]1CO	-14.7	-5.8[16.7 µM]
CC(C)NC(=O)N(C)C[C@@H]1Oc2c(NC(=O)Nc3cccc4ccccc34)cccc2C(=O)N([C@H](C)CO)C[C@H]1C	15.5	29.9[16.7 µM]
C[C@@H]1CN([C@H](C)CO)C(=O)Cc2cc(NS(=O)(=O)c3ccccc3)ccc2O[C@H]1CN(C)CC1CCCCC1	6.8	-4.5[16.7 µM]
C[C@H](CO)N1C[C@H](C)[C@H](CN(C)S(=O)(=O)c2cccs2)Oc2ccc(NC(=O)Nc3ccccc3)cc2CC1=O	19.4	105.5*[16.7 µM]
CCCC#Cc1cnc2c(c1)C(=O)N([C@H](C)CO)C[C@H](C)[C@@H](CN(C)C(=O)Nc1ccccc1OC)O2	28.2	10.8[16.7 µM]
Cc1ccc(S(=O)(=O)N[C@@H]2C=C[C@H](CC(=O)N3CCc4ccccc4C3)O[C@@H]2CO)cc1	-1.5	25.6[16.7 µM]

# Overlap with the part before: 5 entries, then new ones.
compound	UUG fidelity	HIV Env fusion
CC(C)NC(=O)N(C)C[C@@H]1Oc2c(NC(=O)Nc3cccc4ccccc34)cccc2C(=O)N([C@H](C)CO)C[C@H]1C	15.5	29.9[16.7 µM]
C[C@@H]1CN([C@H](C)CO)C(=O)Cc2cc(NS(=O)(=O)c3ccccc3)ccc2O[C@H]1CN(C)CC1CCCCC1	6.8	-4.5[16.7 µM]
C[C@H](CO)N1C[C@H](C)[C@H](CN(C)S(=O)(=O)c2cccs2)Oc2ccc(NC(=O)Nc3ccccc3)cc2CC1=O	19.4	105.5*[16.7 µM]
CCCC#Cc1cnc2c(c1)C(=O)N([C@H](C)CO)C[C@H](C)[C@@H](CN(C)C(=O)Nc1ccccc1OC)O2	28.2	10.8[16.7 µM]
Cc1ccc(S(=O)(=O)N[C@@H]2C=C[C@H](CC(=O)N3CCc4ccccc4C3)O[C@@H]2CO)cc1	-1.5	25.6[16.7 µM]
Cc1ccc(S[C@]2(C(=O)NCc3ccccc3)CC(=O)N(C3CCCCC3)[C@@H]2c2ccc(CO)cc2I)cc1	-15.2	3.5[16.7 µM]
CC(=O)N[C@@H]1C=C[C@H](CC(=O)NCc2ccc(Cl)cc2)O[C@@H]1CO	-12.8	24.7[16.7 µM]
CCC(=O)N(C)C[C@@H]1Oc2ncc(C#CCc3ccccc3)cc2C(=O)N([C@H](C)CO)C[C@@H]1C	3.0	9.2[16.7 µM]
C[C@H](CO)N1C[C@H](C)[C@H](CN(C)C(=O)Nc2ccc3c(c2)OCO3)OCCCC[C@H](C)Oc2ccc(NC(=O)Nc3ccc(F)cc3)cc2C1=O	-15.0	-26.3[16.7 µM]
COc1ccc(S(=O)(=O)Nc2ccc3c(c2)C(=O)N([C@@H](C)CO)C[C@H](C)[C@H](CN(C)C(=O)Nc2ccccc2)OCCCC[C@@H](C)O3)cc1	12.9	-13.7[16.7 µM]
C[C@H]1CN([C@@H](C)CO)C(=O)c2cccc(NC(=O)c3ccc(-c4nccs4)cc3)c2O[C@@H]1CN(C)Cc1ccc(C(=O)O)cc1	-2.4	-13.0[16.7 µM]
COc1ccc(NC(=O)Nc2ccc3c(c2)C(=O)N([C@H](C)CO)C[C@H](C)[C@H](CN(C)S(=O)(=O)c2ccc(OC)cc2)OCCCC[C@H](C)O3)cc1	-7.3	-27.0[16.7 µM]
C[C@H](CO)N1C[C@H](C)[C@@H](CN(C)C)Oc2cc(-c3ccccc3F)ccc2S1(=O)=O	-10.2	3.3[16.7 µM]
Cc1cc(C)cc(N2C(=O)CSC2c2cccc([N+](=O)[O-])c2)c1 (stereo unspecified)	-13.4	-6.4[16.7 µM]
CC(C)CC#Cc1cnc2c(c1)C(=O)N([C@H](C)CO)C[C@H](C)[C@@H](CN(C)C(=O)C1CCCCC1)O2	12.4	7.8[16.7 µM]
C[C@@H]1CCCCO[C@@H](CN(C)S(C)(=O)=O)[C@H](C)CN([C@@H](C)CO)C(=O)c2cc(NS(=O)(=O)c3ccc(F)cc3)ccc2O1	4.2	14.1[16.7 µM]
COc1ccc(NC(=O)N(C)C[C@@H]2OCCCC[C@@H](C)Oc3ccc(NS(=O)(=O)c4cccs4)cc3C(=O)N([C@@H](C)CO)C[C@H]2C)cc1	0.2	-8.9[16.7 µM]
C[C@H]1CN([C@@H](C)CO)C(=O)Cc2cc(NS(=O)(=O)c3cccs3)ccc2O[C@H]1CN(C)Cc1ccc2c(c1)OCO2	6.3	-8.8[16.7 µM]
COc1ccc(S(=O)(=O)Nc2cccc3c2O[C@H](CN(C)S(=O)(=O)c2ccc(Cl)cc2)[C@H](C)CN([C@@H](C)CO)C3=O)cc1	-5.6	-19.8[16.7 µM]
COc1ccc(NC(=O)Nc2cccc3c2O[C@H](CN(C)S(=O)(=O)c2cn(C)cn2)[C@@H](C)CN([C@@H](C)CO)C3=O)cc1	1.4	-0.9[16.7 µM]
C[C@H](CO)N1C[C@H](C)[C@H](CN(C)Cc2cncnc2)Oc2ncc(-c3cccc(C#N)c3)cc2C1=O	-3.3	-8.7[16.7 µM]
Cc1noc(C)c1NC(=O)Nc1ccc2c(c1)CC(=O)N([C@@H](C)CO)C[C@@H](C)[C@@H](CN(C)CC1CC1)O2	7.4	-4.3[16.7 µM]
O=C(C[C@H]1CC[C@H]2[C@@H](COC[C@@H](O)CN2CCC(F)(F)F)O1)NCC1CCCCC1	-4.7	26.1[16.7 µM]
COc1ccc(S(=O)(=O)Nc2ccc3c(c2)C(=O)N([C@@H](C)CO)C[C@@H](C)[C@H](CN(C)S(=O)(=O)c2ccc(Cl)cc2)O3)cc1	-2.1	-5.5[16.7 µM]
N#C[C@H]1[C@@H](c2ccc(C#Cc3cccc(F)c3)cc2)[C@@H](CO)N1C(=O)C1CC1	-7.5	14.0[16.7 µM]

# Some values from above:
# `N#C[C@H]1[C@@H](c2ccc(C#Cc3cccc(F)c3)cc2)[C@@H](CO)N1C(=O)C1CC1` – UUG fidelity = -7.5
# `CC(C)CC#Cc1cnc2c(c1)C(=O)N([C@H](C)CO)C[C@H](C)[C@@H](CN(C)C(=O)C1CCCCC1)O2` – UUG fidelity = 12.4

# The list continues:
compound	UUG fidelity	HIV Env fusion
C[C@H](CO)N1C[C@H](C)[C@H](CN(C)C(=O)Nc2ccc(F)cc2)Oc2ccc(NS(=O)(=O)c3ccc(F)cc3)cc2CC1=O	-2.0	-13.5[16.7 µM]
COCC#Cc1cnc2c(c1)C(=O)N([C@@H](C)CO)C[C@@H](C)[C@H](CN(C)C(=O)Nc1cccc(F)c1)O2	3.2	-4.7[16.7 µM]
CO[C@H]1CN(C)C(=O)c2cc(NC(=O)C3CCOCC3)ccc2OC[C@@H](C)NC[C@H]1C	16.1	5.4[16.7 µM]
Cc1ccc(-c2cnc3c(c2)C(=O)N([C@H](C)CO)C[C@H](C)[C@H](CN(C)C(=O)CN(C)C)O3)cc1	20.3	3.0[16.7 µM]
C[C@@H]1CN([C@H](C)CO)C(=O)c2cc(C3=CCCC3)cnc2O[C@H]1CN(C)C(=O)c1cccnc1	-12.5	4.3[16.7 µM]
O=C(C[C@H]1CC[C@H](NC(=O)CN2CCOCC2)[C@H](CO)O1)NC1CCC1	-13.2	16.6[16.7 µM]
Cc1noc(C)c1NC(=O)N[C@H]1CC[C@@H](CC(=O)Nc2ccccc2)O[C@@H]1CO	-3.4	8.5[16.7 µM]
C[C@H]1CN([C@@H](C)CO)S(=O)(=O)c2ccc(-c3ccccc3)cc2O[C@@H]1CN(C)Cc1cccnc1	-2.6	-21.4[16.7 µM]
C[C@H]1CCCCO[C@H](CN(C)Cc2ccc(Cl)c(Cl)c2)[C@@H](C)CN([C@@H](C)CO)C(=O)c2cc(NC(=O)c3ccccc3)ccc2O1	14.1	12.5[16.7 µM]
C[C@H]1CN([C@@H](C)CO)S(=O)(=O)c2ccc(Br)cc2O[C@@H]1CN(C)Cc1cccnc1	6.6	11.6[16.7 µM]
COc1ccc(S(=O)(=O)Nc2ccc3c(c2)C(=O)N([C@@H](C)CO)C[C@H](C)[C@@H](CN(C)Cc2ccccc2)OCCCC[C@H](C)O3)cc1	12.0	25.8[16.7 µM]
CC(C)CC#Cc1ccc2c(c1)O[C@H](CN(C)C(=O)C1CCOCC1)[C@@H](C)CN([C@H](C)CO)S2(=O)=O	-3.9	-10.9[16.7 µM]
COc1ccc(-c2cnc3c(c2)C(=O)N([C@@H](C)CO)C[C@H](C)[C@H](CN(C)C(=O)C2CC2)O3)cc1	-3.6	3.1[16.7 µM]
C[C@H]1CN([C@@H](C)CO)S(=O)(=O)c2ccc(C3=CCCC3)cc2O[C@H]1CN(C)C(=O)c1cccnc1	-2.0	-9.3[16.7 µM]
CCC(=O)N(C)C[C@H]1Oc2cc(-c3ccccc3C)ccc2S(=O)(=O)N([C@@H](C)CO)C[C@H]1C	-4.3	-7.8[16.7 µM]
C[C@H]1CN([C@@H](C)CO)C(=O)Cc2cc(NC(=O)C3CC3)ccc2O[C@H]1CN(C)S(=O)(=O)c1ccc(F)cc1	-2.8	15.6[16.7 µM]
CCC(=O)N(C)C[C@@H]1Oc2ncc(C#Cc3ccccc3)cc2C(=O)N([C@H](C)CO)C[C@H]1C	-5.8	-1.1[16.7 µM]
C[C@H]1CN([C@@H](C)CO)C(=O)c2cccc(NC(=O)c3cnccn3)c2O[C@@H]1CN(C)S(=O)(=O)c1ccc(Cl)cc1	12.1	14.9[16.7 µM]
COc1ccc(S(=O)(=O)N(C)C[C@@H]2Oc3ccc(NC(=O)CCCCCC(=O)Nc4ccccc4N)cc3C(=O)N([C@H](C)CO)C[C@@H]2C)cc1	2.5	-5.9[16.7 µM]
C[C@@H]1CN([C@H](C)CO)S(=O)(=O)c2ccc(C#CCC3CCCC3)cc2O[C@H]1CN(C)C(=O)CN(C)C	111.8*	-20.6[16.7 µM]
C/C=C/c1cnc2c(c1)C(=O)N([C@H](C)CO)C[C@H](C)[C@H](CN(C)S(=O)(=O)c1cccs1)O2	-9.9	-13.7[16.7 µM]
CS(=O)(=O)N1[C@H](C#N)[C@@H](c2ccc(C#Cc3cccc(F)c3)cc2)[C@@H]1CO	-2.9	-1.5[16.7 µM]
C[C@H](O)C#Cc1cnc2c(c1)C(=O)N([C@H](C)CO)C[C@H](C)[C@@H](CN(C)Cc1cncnc1)O2	7.8	-3.7[16.7 µM]
CCC(=O)N(C)C[C@H]1Oc2cc(C#Cc3cccnc3)ccc2S(=O)(=O)N([C@H](C)CO)C[C@H]1C	-6.3	-1.6[16.7 µM]
Cc1ccc(S(=O)(=O)Nc2cccc3c2O[C@H](CN(C)S(=O)(=O)c2ccc(F)cc2)[C@H](C)CN([C@H](C)CO)C3=O)cc1	-5.4	0.2[16.7 µM]
C[C@H]1CN([C@@H](C)CO)C(=O)c2cccc(NS(=O)(=O)c3ccccc3)c2O[C@@H]1CN(C)Cc1ccc(Oc2ccccc2)cc1	4.0	-2.3[16.7 µM]
O=C(C[C@@H]1CC[C@@H]2[C@H](COC[C@H](O)CN2Cc2ccc(F)cc2)O1)NCc1ccncn1	5.7	-13.2[16.7 µM]
